miR-21 FLuc: raises the signal of a miR-21 reporter. HeLa miR-21 FLuc reporter, luciferase, 48 h. Potency, µM (series often up to 38.3 µM), without a hit: at the highest dose reporter change, positive = more light. 340,000 tested, under 10 active; active = well fitted rising curve with a large enough effect; inconclusive = small, poorly fitted or top-dose-only effect; inactive = no such curve, though single readings can be large or run the other way;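 note: % of control where 0% means no effect; miR-21 action dims this reporter so a rising signal means less miR-21 action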
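HeLa cells endogenously expressing miR-21, stably carrying CMV-driven firefly luciferase with a downstream miR-21 binding site, 2000 cells/well. Titrations up to approximately 40 uM, 48 hours; luciferase luminescence read.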
Numbers without * were called inactive; u = inconclusive; [ ] = another dose, or the depositor's remark.

SMILES	miR-21 FLuc
Cc1cccc(N2CCN(C(=O)c3c(C)oc4ncnc(N5CCOCC5)c34)CC2)c1C	2%
COc1ccc([C@]23Cc4c(ccc5ccccc45)C(O2)C2=C(CC4(CCCCC4)OC2=O)O3)cc1	-2%[7.66 µM]
COc1cc(OC)cc(C(=O)N2CC(=O)Nc3ccc(Cl)cc3C2c2ccccc2)c1 (stereo not drawn)	-3%
CCCOc1ccc(NC(=O)CC2C(=O)N(c3ccc(C)cc3)C(=O)N2CCc2ccncc2)cc1 (stereo not drawn)	11%
CCCCNC(=O)C1CCN(c2nc3ccccc3nc2C(F)(F)F)CC1	6%
COc1ccc(-c2cc(C(=O)NCc3cc(OC)c(OC)c(OC)c3)[nH]n2)cc1	2%
COc1cc([N+](=O)[O-])ccc1NC(=O)N1CCC2(CC1)Nc1ccccc1-n1cccc12	2%
CCc1cccc(CC)c1NC1=NS(=O)(=O)c2ccccc21	-7%
Cc1oc2ncn(C)c(=O)c2c1C(=O)NC(C)c1ccccc1 (stereo not drawn)	8%
COc1cccc(Cn2c(=O)n(Cc3ccccc3)c(=O)c3c2c2cc(OC)ccc2n3C)c1	2%
Cc1cc2ccccc2n1-c1ccc(C(=O)N2CCC(C(=O)NCc3ccccc3Cl)CC2)s1	-1%
COc1ccc(C2C(C(=O)Nc3ccc(C)cc3C)=C(C)Nc3nc(SCc4cccc(C)c4)nn32)c(OC)c1 (stereo not drawn)	-5%
CCc1ccc(OCc2nc(-c3ccc(OC)c(OC)c3)no2)c(Br)c1	-16%
CCOC(=O)c1c(-c2ccccc2)csc1NC(=O)c1cc(-c2cccc(Cl)c2)on1	1%
COc1ccc(C(=O)NCc2nc(-c3cccc(C)c3)no2)cc1OC	0%
COc1ccc(-c2cc3ccc(O)c(CN4CCN(C)CC4)c3oc2=O)cc1OC	-28%
Cc1ccc(CNC(=O)CN2CCN(Cc3ccc(F)cc3Cl)C2=O)cc1	2%
Cn1c(=O)oc2cc(S(=O)(=O)N3CCCC(C(=O)NCc4ccccc4Cl)C3)ccc21 (stereo not drawn)	19%
CCOc1ccc(CCNC(=O)Cn2ccc3cc(S(=O)(=O)N4CCCCC4)ccc32)cc1	15%
O=C(Nc1cccc(F)c1)c1ccc2c(c1)N(Cc1ccccc1)C(=O)c1ccccc1S2(=O)=O	15%
Cc1cccc(C)c1NC(=O)Cn1c(=O)n(Cc2ccco2)c(=O)c2ccc(C(=O)NC3CCCC3)cc21	2%
Cc1ccc(NC(=O)CSc2nnc(C)c(=O)[nH]2)cc1	1%
O=C(NCc1ccccc1Cl)c1ccc(CSCc2cccc(F)c2)o1	0%
CCOC(=O)c1cc(-c2ccccc2)n(CCCC(=O)Nc2ccc(C(C)C)cc2)c1C	u
CCOC(=O)c1cccc(NC(=O)C(C)n2nc(C)c3c(C)n(-c4ccccc4)nc3c2=O)c1 (stereo not drawn)	15%

Continued:
SMILES	miR-21 FLuc
CCc1ccc(NC(=O)CSc2nc3c(c(=O)[nH]2)CN(Cc2ccc4c(c2)OCO4)CC3)cc1	0%
O=S(=O)(Nc1cccc(-c2ccc(N3CCCC3)nn2)c1)c1cc(F)ccc1F	-25%
COc1cccc(CNc2nc3ccccc3c3nc(-c4cccc(C)c4)nn23)c1	-35%
Cc1cc(C)cc(-n2cnc3cc(C(=O)NC4CCCCCC4)ccc32)c1	-3%
CCOc1cccc(OCCCn2c(-c3ccc(Br)cc3)nc3ccccc3c2=O)c1	0%
Cc1nc2c3ccccc3nc(NNC(=O)CCC(=O)N3CCN(c4cccc(Cl)c4)CC3)n2n1	-6%
COc1ccc(C2=C(C)C(=O)N(Cc3ccc(C(=O)NC(C)c4ccccc4)cc3)S2(=O)=O)cc1 (stereo not drawn)	3%
Cc1ccc2ncc3c(-c4ccccc4)nn(CC(=O)NC4CCCCC4)c3c2c1	5%
CCc1cccc(NC(=O)Cn2nc3c4cc(F)ccc4n(Cc4cccc(C)c4)cc-3c2=O)c1	-1%
O=C(NCc1ccc(F)cc1)c1cccc(N2CCCS2(=O)=O)c1	2%
Cc1ccc2c(c1)N(CC(=O)NCCc1ccccc1)C(=O)CO2	-7%
O=C(Nc1nc2ccccc2s1)c1ccc(S(=O)(=O)N2CCCC2)cc1	-17%
CCC(=O)Nc1nnc2n1CCS2	6%
Cc1ccc(Cl)cc1N1CCN(C(=O)c2cnn(-c3ccc(Cl)cc3)c2C2CCNCC2)CC1	u
Cc1ccc(CSc2ccc3nnc(CCNS(=O)(=O)c4ccc(C)cc4)n3n2)cc1	4%
Cc1ccc(-n2ccnc(NCCc3ccc(S(N)(=O)=O)cc3)c2=O)c(C)c1	22%
O=C(c1cnc(N2CCCCC2)c2ccccc12)N1CCN(c2cccc(Cl)c2)CC1	26%
COc1ccc(C(=O)Nc2ccccc2)cc1S(=O)(=O)Nc1ccc(Br)cc1	-3%
CCCCc1nn2c(=O)cc(COC(=O)CNC(=O)COc3ccc(C)cc3)nc2s1	-2%
CC1CCN(CC2CCN(C(=O)NCc3ccc(F)cc3)CC2)CC1	1%
CCOc1cc2sc(N3CCC(C(=O)Nc4ccc(C)cc4C)CC3)nc2cc1Br	-44%
O=C(NCCc1ccc(Cl)cc1)c1cc2c(s1)-c1ccccc1OC2	4%
Cc1cc(C)c(NC(=O)CSc2nnc3[nH]c(=O)cc(C)n23)c(C)c1	-1%
CCN1CCN(c2ncnc3c2cnn3-c2ccc(C)c(C)c2)CC1	-66%
O=C1c2oc3ccccc3c(=O)c2C(c2ccccc2)N1Cc1ccc2c(c1)OCO2 (stereo not drawn)	-4%

(further entries)
SMILES	miR-21 FLuc
CCCNC(=O)CSc1nc(-c2ccc(OC)cc2)cc(C(F)(F)F)n1	-1%
CC(=O)N1CCCC1c1nc2ccccc2n1Cc1cccc(Cl)c1 (stereo not drawn)	-4%
COc1ccc(NC(=O)c2ccc3c(=O)n4nc(Nc5cc(C)ccc5C)sc4nc3c2)cc1	-3%
COc1cc2[nH]c(=O)n(Cc3ccc(C(=O)N4CCN(c5cccc(C)c5C)CC4)cc3)c(=O)c2cc1OC	3%
Cc1nn(C)c2c1c(-c1ccccc1)cc(=O)n2Cc1ccc(F)cc1Cl	-12%
CCC1CN(C(=O)N2CCC(C(=O)NCc3ccc(N(C)C)cc3)CC2)c2ccccc2O1 (stereo not drawn)	20%
O=C(NC1CC(=O)N(c2ccc(Cl)cc2)C1)c1ccc(S(=O)(=O)N2CCCC2)cc1 (stereo not drawn)	14%
CN(c1ccccc1C(=O)O)S(=O)(=O)c1ccc2[nH]c(=O)oc2c1	0%
CCOc1ccc(-c2nc(Cn3ccn4nc(-c5ccc(OCC)c(Cl)c5)cc4c3=O)c(C)o2)cc1	-7%
CC1Cn2c(C(=O)NCc3cccc(Br)c3)cc3cccc(c32)S1 (stereo not drawn)	1%
CCOc1ccc(NC(=O)CN2CCSc3ccc(S(=O)(=O)N4CCCC4)cc32)cc1	11%
O=[N+]([O-])c1cc(-c2nc(-c3cccnc3)no2)ccc1NCc1ccccc1	20%
CCOc1ccc(CNS(=O)(=O)c2ccc3c(c2)CCCN3C(C)=O)cc1	2%
Cc1ccc(-c2nc(C)c(CCNC(=O)C(=O)Nc3ccc4c(c3)OCCO4)s2)cc1	-17%
COc1ccc(Nc2cc(C)nc(-n3nc(C)cc3C)n2)cc1Cl	u
Cc1c(C(=O)NCc2cccc(Cl)c2)sc2nc3n(c(=O)c12)CCCC3	4%
COC(=O)c1ccc(OC)c(Cn2c(=O)n(-c3ccc(C)cc3)c(=O)c3c2cnn3C)c1	-1%
Cc1ccc(C(=O)c2sc(Nc3ccccc3)c(S(=O)(=O)c3ccccc3)c2N)c(C)c1	2%
Cc1ccc(-c2nc(CSc3nncn4c3cc3occc34)c(C)o2)cc1	-5%
COc1ccccc1NC(=O)CSC1=Nc2ccccc2C2=NC(CC(=O)NCc3ccc4c(c3)OCO4)C(=O)N12 (stereo not drawn)	7%
COc1ccc(OCc2ccc(-c3nc(C#N)c(N4CCC(C)CC4)o3)o2)cc1	-12%
Cc1ccc(Cn2c(SCc3ccc(C(=O)N4CCCCC4)cc3)nc3ccncc32)cc1	24%
COc1ccc(CCNc2nc(-c3ccc(OC)c(OC)c3)cc(C(F)(F)F)n2)cc1OC	u
CCOc1ccc(N(CC)S(=O)(=O)c2cc(Br)cc3c2N(C(C)=O)C(C)C3)cc1 (stereo not drawn)	u
COCCNC(=O)c1ccc2c(c1)NC(=O)C(CS(=O)(=O)Cc1ccc(F)cc1Cl)N2 (stereo not drawn)	-3%

An excerpt from above in order of number of heavy atoms, smallest number first:
SMILES	miR-21 FLuc
CC1Cn2c(C(=O)NCc3cccc(Br)c3)cc3cccc(c32)S1 (stereo not drawn)	1%
COc1ccc(OCc2ccc(-c3nc(C#N)c(N4CCC(C)CC4)o3)o2)cc1	-12%
O=C(NC1CC(=O)N(c2ccc(Cl)cc2)C1)c1ccc(S(=O)(=O)N2CCCC2)cc1 (stereo not drawn)	14%
Cc1ccc(-c2nc(C)c(CCNC(=O)C(=O)Nc3ccc4c(c3)OCCO4)s2)cc1	-17%
COC(=O)c1ccc(OC)c(Cn2c(=O)n(-c3ccc(C)cc3)c(=O)c3c2cnn3C)c1	-1%
CCC1CN(C(=O)N2CCC(C(=O)NCc3ccc(N(C)C)cc3)CC2)c2ccccc2O1 (stereo not drawn)	20%
COc1ccc(NC(=O)c2ccc3c(=O)n4nc(Nc5cc(C)ccc5C)sc4nc3c2)cc1	-3%

The list goes on:
SMILES	miR-21 FLuc
COc1cc(C(=O)Oc2c(Sc3ccc(C)cc3)c(C)nn2-c2ccccc2)cc(OC)c1OC	15%
CCN(CC)CCNC(=O)C1CCN(c2nn3cc(-c4ccc(F)cc4)nc3s2)CC1	-6%
COC(=O)c1ccc(NC(=O)c2cc3cc(C)ccc3n2C)cc1	-9%
COc1cc2nc(SCC(=O)Nc3c(C)cc(C)cc3C)n3nc(CCn4c(C)nc5ccccc54)nc3c2cc1OC	-13%
CCC(C(=O)Nc1cc(F)ccc1F)n1nc(-c2cc(C)ccc2C)ccc1=O (stereo not drawn)	-1%
CCOC(=O)N1CCc2c(sc(NCc3sccc3C)c2C(=O)Nc2ccc(OC)cc2OC)C1	u
COCCn1c(C)cc(O)c(C(c2ccc(OC)cc2)N2CCCCC2)c1=O (stereo not drawn)	2%
CC(C)(C)c1ccc(C(=O)NCC(c2cccs2)S(=O)(=O)c2ccc(F)cc2)cc1 (stereo not drawn)	u
Cc1ccc(C)c(NC(=O)C2CCCN(S(=O)(=O)c3cn(C)cn3)C2)c1 (stereo not drawn)	-3%
CCc1cccc(CC)c1NC(=O)CCS(=O)(=O)c1ccc2c(c1)CCN2C(C)=O	-9%
COc1ccc(C(CC(=O)NCc2ccc(Cl)cc2)N2Cc3ccccc3C2=O)cc1OC (stereo not drawn)	u
Cc1ccc(NC(=O)c2cc(S(=O)(=O)N3CCCC(C)C3)cn2C)c(Br)c1 (stereo not drawn)	4%
Cc1ccc2c(c1)N(C(=O)N1CCC(C(=O)NC3CCCCCC3)CC1)CCO2	-37%
Cc1cccc(C(=O)Nc2nc(-c3ccc(Br)cc3)ns2)c1	-6%
Cc1sc2ncn(CC(=O)N3CCN(c4cccc(Cl)c4)CC3)c(=O)c2c1S(=O)(=O)N1CCC(C)CC1	u
O=C(Nc1nc2n(n1)C(c1ccccc1)C=C(c1ccc(Cl)cc1)N2)c1ccco1 (stereo not drawn)	7%
O=C(Nc1ccccc1F)c1oc2ccccc2c1NC(=O)C12CC3CC(CC(C3)C1)C2	-6%
CN(C)C(=O)c1ccc2c(c1)N(CC(=O)NCc1ccccc1Cl)C(=O)C1CCCCN21 (stereo not drawn)	-4%
CCC(C(=O)NCc1ccccc1)n1ncn2c(cc3occc32)c1=O (stereo not drawn)	-5%
Cc1ccc(NC(=O)c2nc(S(C)(=O)=O)ncc2N(Cc2ccco2)Cc2cccs2)cc1C	8%
N#Cc1cc2c(=O)n3ccccc3nc2n(-c2nnc(SCc3ccc(F)cc3)s2)c1=O	3%
CCCN(C(=O)Nc1cn(CC(C)C)c(=O)c2ccccc12)c1ccc(F)cc1	-4%
Cc1ccc2c(c1)-c1c(cnn1CC(=O)N1CCN(c3cc(Cl)ccc3C)CC1)CO2	0%
CCOc1ccccc1Nc1sc(C(=O)c2ccccc2)c(N)c1C(=O)Nc1ccccc1	25%
Cn1cc(S(=O)(=O)c2ccccc2)c(=O)c2cc(F)c(N3CCN(c4ccccc4)CC3)cc21	1%

In a second layout: results already given
Structure,miR-21 FLuc
CCC(C(=O)Nc1cc(F)ccc1F)n1nc(-c2cc(C)ccc2C)ccc1=O (stereo not drawn),-1%
CCN(CC)CCNC(=O)C1CCN(c2nn3cc(-c4ccc(F)cc4)nc3s2)CC1,-6%
Cc1ccc2c(c1)-c1c(cnn1CC(=O)N1CCN(c3cc(Cl)ccc3C)CC1)CO2,0%
CCOC(=O)N1CCc2c(sc(NCc3sccc3C)c2C(=O)Nc2ccc(OC)cc2OC)C1,u
Cc1ccc(NC(=O)c2cc(S(=O)(=O)N3CCCC(C)C3)cn2C)c(Br)c1 (stereo not drawn),4%
CCC(C(=O)NCc1ccccc1)n1ncn2c(cc3occc32)c1=O (stereo not drawn),-5%

(more compounds)
SMILES	miR-21 FLuc
O=C(COc1ccc2oc3c(c2c1)CCCC3)Nc1ccc(Cl)cc1	3%
CCOc1ccccc1NC(=O)c1ccc2c(c1)CCN2S(=O)(=O)c1ccc(C)cc1	0%
Cc1oc(-c2ccccc2)nc1Cn1c(SCc2cccc(C(F)(F)F)c2)nc2cccnc21	-5%
Cc1ccc(-c2c(CN3CCN(c4cccc(C(F)(F)F)c4)CC3)csc2C)cc1	1%
CC1CCC(NC(=O)c2ccc(CSc3nc4ccncc4n3Cc3ccc(F)cc3)cc2)CC1 (stereo not drawn)	20%
COc1ccc2c(c1)c1c(c(=O)n(-c3ccccc3)c(=O)n1CC(=O)NCCC1=CCCCC1)n2C	0%
Cc1ccc(CCNC(=O)c2ccc(NC(=O)N3CCSc4ccccc43)cc2)cc1	-2%

Assay outcomes from PubChem.

Only part of the results is shown; the hit share may differ from the screen's.
